# Assay outcomes deposited in PubChem BioAssay by several laboratories.
# A1 inh: inhibitors of the anti-apoptotic protein A1, read as caspase activation. 330,000 compounds, 0.066% hits. caspase activation, % (concentration not given with the values). AID 2462. MEF A1-2A-BIM cells, Caspase-Glo 3/7 luminescence, 3 h; percent of clofoctol response, vehicle zero;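 active = over half of replicate activation scores above 10%, or exactly half above 10 with the replicate mean above 10; inconclusive = replicate mean below 10 yet half the replicates above 10; inactive = over half of replicates below 10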;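 note: wells of about 30 µL received 50 nL stock; many hits fall short of the cut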
# AF4-AF9 inh: MLL-AF4/AF9 protein interaction inhibition | P42568 | AlphaScreen, biotin-AF4 peptide binding to FLAG-AF9 | inhibition, % at 10 µM | 350,000 compounds, 0.47% hits | AID 651704;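 active = every replicate reaching a set inhibition limit, whatever the replicate mean, cut at about 25% in these data; inconclusive = mean inhibition reaches that limit but some replicates miss it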;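 note: 0% = plate neutral control median and 100% = total signal loss; the record names both 10 and 1 µM as test concentration; the first replicate is given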
# Target sequence (P42568 whole entry, looked up): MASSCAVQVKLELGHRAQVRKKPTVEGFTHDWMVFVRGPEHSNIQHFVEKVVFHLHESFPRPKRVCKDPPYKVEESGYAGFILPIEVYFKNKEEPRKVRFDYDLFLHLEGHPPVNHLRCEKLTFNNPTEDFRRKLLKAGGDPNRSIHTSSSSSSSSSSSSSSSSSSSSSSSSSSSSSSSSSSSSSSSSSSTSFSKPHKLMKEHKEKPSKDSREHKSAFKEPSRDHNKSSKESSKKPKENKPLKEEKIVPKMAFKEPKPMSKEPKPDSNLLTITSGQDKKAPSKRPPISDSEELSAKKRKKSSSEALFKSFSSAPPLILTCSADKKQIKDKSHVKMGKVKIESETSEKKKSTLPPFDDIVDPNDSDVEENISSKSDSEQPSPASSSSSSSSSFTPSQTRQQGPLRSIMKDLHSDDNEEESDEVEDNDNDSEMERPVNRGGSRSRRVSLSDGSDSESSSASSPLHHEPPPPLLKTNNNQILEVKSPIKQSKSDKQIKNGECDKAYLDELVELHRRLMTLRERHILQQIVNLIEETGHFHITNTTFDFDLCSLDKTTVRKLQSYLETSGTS
# Ecoli rRNA inh: inhibitors of bacterial rRNA selective over humanized ribosomes; E. coli WT GFP vs humanized-ribosome RFP mutants, fluorescence, 24 h; stronger effect = lower value; DMSO median 0, no signal -100; 350,000 compounds, 1.6% hits; AID 720706; GFP signal change (wild-type ribosome), % (concentration not given with the values);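 active = significant combined selectivity score with lowered wild-type GFP, culture density cut under 30%, mutant RFP and density less affected; inactive = any of these conditions unmet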; note: one replicate is shown; some compounds called inactive have numbers as strong as hits
# E coli growth: blocks Escherichia coli growth; OD600, 23 h; stronger effect = lower value; OD600 absorbance (test concentration not listed); 330,000 compounds, 0.21% hits; AID 1053175;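 active = OD600 absorbance below the run mean of sample wells minus 3.6 SD, in any replicate, cut at about 0.56 in these data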;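 note: stock transfer was 300 nL into about 60 µL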
# Beta cell apopt: beta cell apoptosis inhibition; INS-1E cytokine-induced death, ATP luminescence, 48 h; percent of positive-control rescue, neutral wells zero; protection from apoptosis, % (concentration not given with the values); 300,000 compounds, 0.8% hits;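 active = all replicates at 75% or more, or half of them and the mean; inconclusive = half reach 75% but not the mean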;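 note: 0% = cytokine-treated negative control wells and 100% = positive control rescue; higher means more ATP so stronger rescue from cytokine killing; wells of about 40 µL received 100 nL stock; the first replicate is given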
# FGF22 binding: FGF22 (human) thermal shift binding | Q9HCT0 | recombinant FGF22 thermal shift, SYPRO orange fluorescence; percent of sucrose octasulfate shift, DMSO zero | calls only at 9.99 µM | 340,000 compounds, 1.5% hits;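 active = melting point raised past a set limit in the mean and every replicate; inconclusive = no clear call; three in four hits are not shown here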
# Target sequence (Q9HCT0 whole entry, looked up): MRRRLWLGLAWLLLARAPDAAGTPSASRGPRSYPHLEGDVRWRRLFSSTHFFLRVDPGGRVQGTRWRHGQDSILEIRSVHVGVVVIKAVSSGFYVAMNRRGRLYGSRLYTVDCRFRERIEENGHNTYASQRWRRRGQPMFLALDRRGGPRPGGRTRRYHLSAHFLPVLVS
# T cruzi repl: T. cruzi replication inhibition; T. cruzi beta-gal in NIH3T3, luminescence, 90 h; inhibition, % (no concentration beside the values); 300,000 compounds, 1.4% hits;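 active = mean inhibition across valid replicates above about 55%, limit read from the data; inconclusive = mean below that limit but half or more replicates reach it; inactive = mean below it, under half of replicates reach it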;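 note: signal also drops with host cell toxicity which is not excluded here; 0% = plate median of DMSO wells and 100% = zero luminescence signal; higher percent means less beta-gal luminescence so fewer parasites; stock transfer was 50 nL into about 50 µL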
# UCH37 DUB inh: inhibitors of human deubiquitinating enzyme UCH37. Q9Y5K5. purified proteasome/UCH37, Ub-AMC cleavage fluorescence. inhibition, % (test concentration not listed). 330,000 compounds, 0.33% hits;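 active = mean of two replicates above 20%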;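 note: 0% = compound-free wells with enzyme and 100% = wells lacking proteasome; stock transfer was 100 nL into about 20 µL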
# Target sequence (Q9Y5K5 whole entry, looked up): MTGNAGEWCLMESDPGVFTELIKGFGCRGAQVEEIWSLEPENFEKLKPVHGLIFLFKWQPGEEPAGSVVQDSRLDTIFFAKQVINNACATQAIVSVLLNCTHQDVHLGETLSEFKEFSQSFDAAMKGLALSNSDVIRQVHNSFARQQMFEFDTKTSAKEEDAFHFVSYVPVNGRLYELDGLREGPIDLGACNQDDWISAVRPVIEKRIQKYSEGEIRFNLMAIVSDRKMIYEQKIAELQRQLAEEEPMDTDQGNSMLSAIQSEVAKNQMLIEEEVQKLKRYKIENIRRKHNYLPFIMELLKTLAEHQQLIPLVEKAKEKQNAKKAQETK
#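 Material: Human UCH37 enzyme supplied as purified proteasome complex | Schedule: 30 min compound-proteasome preincubation then 25 min substrate reaction, room temperature | Detection: AMC fluorescence from Ub-AMC cleavage, excitation 355 nm, emission 460 nm | Benchmarks: Wells without proteasome as full block, compound-free enzyme plus substrate as uninhibited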
# Ecoli rRNA inh OD600: recorded beside Ecoli rRNA inh, whose call it bears; OD600 change, %; measured here: OD600 growth;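 optical density of the mix in the first replicate; 0 = DMSO median and -100 = no signal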
# Ecoli rRNA inh RFP: also measured in Ecoli rRNA inh; calls as there; RFP signal change, %; measured here: RFP humanized mutant strains;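 first replicate; 0 = DMSO median and -100 = no signal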
# The depositor's hits bear a star; i = inactive; ? = inconclusive; . = no result given; + = active, no number. An excerpt. The share of hits here may be higher or lower than overall.
no.	compound	A1 inh	AF4-AF9 inh	Ecoli rRNA inh	Ecoli rRNA inh OD600	Ecoli rRNA inh RFP	E coli growth	Beta cell apopt	FGF22 binding	T cruzi repl	UCH37 DUB inh
1	O=C(Cn1cnc2scc(-c3ccc(Cl)cc3)c2c1=O)N1CCOCC1	0.3	0.2	0.8	-8.0	-2.3	0.661	1.0	i	-1.3	1.6
2	COc1ccc(CCNC(=O)Nc2cccc([N+](=O)[O-])c2)cc1OC	-0.7	2.9	1.6	-2.9	4.0	.	-9.9	i	-3.1	.
3	O=C(NC(=S)NCCOCc1ccc(Cl)cc1)c1cccnc1	0.6	.	.	.	.	0.69	3.1	.	7.7	1.5
4	FC(F)(F)c1nnc(-c2ccccc2)nc1N1CCCC1	0.9	-2.7	19.3	19.8	2.9	0.621	-3.7	i	-4.4	1.8
5	CN(C)CCCOC(=O)COc1ccc(C(C)(C)C)cc1	1.1	.	.	.	.	0.676	0.7	.	-18.0	3.2
6	CC(C)C(NC(=O)c1ccc(C(C)(C)C)cc1)C(=O)Nc1cccc(S(N)(=O)=O)c1 (centres undefined)	0.8	4.4	-9.7	-11.5	-0.7	0.725	6.9	i	-12.2	1.9
7	CC(O)/C=C/C1OC(=O)CC1Nc1ccc(C=O)cc1 (centres undefined)	0.5	0.5	9.2	4.9	-5.1	0.775	-7.7	i	-8.7	9.2
8	O=C(Nc1ccc(Oc2nnc(-c3ccccc3)c3ccccc23)cc1)c1ccccc1	1.0	.	.	.	.	0.712	11.9	.	31.1	5.6
9	O=C(Nc1ccc(N2CCOCC2)cc1)c1cc2c(s1)CCCCC2	0.5	7.3	-21.6*	-12.0*	0.4*	0.649	7.7	i	19.3	2.0
10	COc1cc(C(=O)OCCCc2cc3ccccc3c(=O)o2)cc(OC)c1OC	-0.8	-0.4	-16.5	-13.8	-2.8	0.788	2.8	i	.	2.0
11	CC(NC(=O)/C(C#N)=C/c1cccs1)c1ccccc1 (centres undefined)	1.0	3.7	-14.6	-0.6	0.3	0.695	-3.3	i	-14.6	4.5
12	C/C(=N\NC(=O)c1nnn(-c2nonc2N)c1-c1cccs1)c1cccc(O)c1	-0.8	-0.9	-4.6	-5.1	0.1	.	-2.5	i	6.7	.
13	O=C(COC(=O)c1cc(S(=O)(=O)N2CCOCC2)c(Cl)cc1Cl)NC1CC1	0.8	-0.9	0.5	5.8	-0.7	0.659	-1.4	i	.	1.3
14	O=C(N/N=C/C(Cl)=C/c1ccc([N+](=O)[O-])cc1)C(=O)Nc1ccc(C(=O)O)cc1	1.1	-19.1	-2.8	-4.5	-5.1	.	-7.3	i	12.3	.
15	Cc1ccc(Cl)cc1NC(=O)CCn1cccc1	-0.3	.	.	.	.	0.693	-9.3	.	-8.7	-0.2
16	O=[N+]([O-])/C(C(=C(Cl)Cl)N1CCN(Cc2ccccc2)CC1)=C1\NCCN1Cc1ccc(Cl)nc1	1.8	1.2	-5.4	-8.3	-2.1	0.72	.	i	27.4	4.8
17	CC(C)CN(C(=O)C1CSC2(C)CCC(=O)N12)c1c(N)n(Cc2ccccc2)c(=O)[nH]c1=O (centres undefined)	?	-1.2	18.2	12.8	3.0	0.677	-1.9	i	-8.0	6.9
18	COc1ccc(CN(C)C(=S)Nc2ccc(OC(F)F)cc2)cc1	0.6	-2.9	-20.0	-20.8	-2.1	0.634	-2.6	i	-9.2	1.0
19	CCCS(=O)(=O)N1CCCC(C(=O)NC2CCCC(C)C2C)C1 (centres undefined)	0.7	.	.	.	.	0.682	-6.0	.	.	0.0
20	Cc1nnc(SCC(=O)Nc2sc3c(c2C(N)=O)CCC(C)C3)[nH]c1=O (centres undefined)	0.1	-0.8	1.1	2.1	-3.2	0.644	-1.1	i	.	6.1
21	CC1(C)CC(NC(=O)COc2ccc(Cl)cc2Cl)CC(C)(C)N1	-0.1	0.4	2.9	5.2	-2.4	0.679	-2.2	i	3.7	6.8
22	CC1(C)C2CCC1(CS(=O)(=O)Nc1ccc(S(=O)(=O)N3CCCCC3)cc1)C(=O)C2 (centres undefined)	-0.6	.	.	.	.	0.665	5.2	.	0.5	3.9
23	CCOC(=O)CN1CC23C=CC(O2)C(C(=O)Nc2ccc(F)c(C)c2)C3C1=O (centres undefined)	-0.2	.	.	.	.	0.733	-2.6	.	-7.4	0.3
24	Clc1cc(Cl)cc(CSc2nnc(-c3sccc3-n3cccc3)o2)c1	0.8	.	.	.	.	0.777	-3.9	.	16.7	-2.6
25	Brc1ccc(OCCCCN2CCCCC2)cc1	0.8	-1.4	16.5	13.9	0.2	0.675	0.1	i	38.6	1.3
26	CCCCc1nc(NCCNC(=O)c2ccco2)c(C#N)c2c1CSC(C)(C)C2	-0.7	.	.	.	.	0.718	3.9	.	.	-59.2
27	CC/C(=C/c1sc2ccc(C)cc2[n+]1CCO)SC	-1.7	-7.0	11.6	-2.0	17.5	0.706	-3.3	i	-16.1	7.3
28	c1ccc(-c2nc(NCCCn3ccnc3)c3oc4ccccc4c3n2)cc1	0.5	21.4	-60.0	-81.1	-30.7	0.679	3.2	i	26.1	4.1
29	O=C(Cn1cccc1C(=O)c1ccccc1)NCCCc1ccccc1	-0.8	-2.2	-7.3	-13.3	0.2	0.683	-2.2	i	-14.0	0.9
30	Cc1ccc(NC(=O)c2cc(NC(=O)c3ccco3)ccc2N2CCCCC2)cc1	-0.3	.	.	.	.	0.679	-1.9	.	5.7	-38.4
31	COc1ccccc1NC(=O)C12CCC(C)(C(=O)C1)C2(C)C (centres undefined)	1.2	-0.6	8.1	13.2	7.7	0.7	-2.5	i	-1.1	0.2
32	NC(=O)c1ccc(NC(=O)CCNC(=O)c2ccco2)cc1	-0.2	-2.7	-3.0	-1.8	3.2	0.682	-1.6	i	-3.5	1.9
33	CCOC(=O)c1c(C)oc2ccc(OCC(=O)N(CC)CC)cc12	1.9	.	.	.	.	0.692	1.1	.	9.4	1.2
34	Oc1ccc(/C=N/N=C/c2ccc(O)c(O)c2)cc1O	-1.7	4.7	9.2	11.9	0.6	.	-0.9	+	-8.9	.
35	CN(Cc1c(C(=O)N/N=C/c2cccc(O)c2)nnn1-c1nonc1N)C1CCCCC1	-0.3	-0.1	13.6	22.1	5.7	.	0.0	i	-1.9	.
36	COc1ccc(NC(=O)COc2ccc(Br)cc2)c(OC)c1	0.3	-3.1	-2.5	2.5	-0.3	0.716	6.7	i	-1.2	2.7
37	CC(CNC(=O)CN1C(=O)c2cccnc2Oc2ccc(Cl)cc21)c1ccccc1 (centres undefined)	1.1	-1.2	6.7	-3.3	-0.4	0.68	-1.5	i	0.6	1.3
38	Cc1nc2c(c(=O)c3ccccc3n2C)c(=O)n1-c1ccccc1	-1.2	-0.2	.	.	.	0.669	6.4	i	.	6.9
39	Cc1cccc(NC(=O)CSc2nnc(-c3ccccc3Br)o2)c1C	0.4	.	.	.	.	0.765	-0.7	.	-5.9	4.2
40	CC1(C)CC(=O)C(C(=O)C2CCN(S(=O)(=O)c3ccccc3)CC2)C(=O)C1	1.3	-1.4	3.8	-3.7	-1.3	0.691	-7.4	i	-6.9	2.9
41	CCCCC1(C)OC(=O)C(=Cc2ccc(-c3ccc(Cl)c(C(=O)O)c3)o2)C(=O)O1 (centres undefined)	0.4	1.6	6.0	6.6	-1.6	0.68	2.3	+	3.0	0.0
42	COCCCNC(=O)C1CCN(c2ccc(N3CCOCC3)nn2)CC1	0.3	2.1	6.3	7.0	-1.4	0.702	-6.2	i	0.5	-245.8
43	COCCCNC(=O)C[C@H]1C[C@H](C(=O)N2CCOCC2)[C@@]2(C)c3[nH]c4cc(-c5ccco5)ccc4c3CCN2C1=O	.	4.0	4.1	5.3	0.2	0.697	.	i	.	-29.3
44	CCOC(=O)c1cccc(NC(=O)CSc2nc(N)cc(N)n2)c1	-0.4	.	.	.	.	0.677	-5.1	.	-1.6	3.5
45	Cc1ccc(S(=O)(=O)N(C)c2ccc(OCC(=O)NC3=NCCS3)cc2)cc1	0.6	3.5	-1.2	4.0	-0.6	0.715	-1.2	i	-10.0	1.8
46	Cc1ccc(NC(=O)COc2ccc(N(C)C(=O)C(C)(C)C)cc2)cc1S(=O)(=O)N1CCCCC1	-2.0	0.6	-9.4	-10.6	4.8	0.704	114.6*	i	.	3.8
47	CC1CCCN(C2=C(Cl)C(=O)N(c3cccc(Cl)c3)C2=O)C1 (centres undefined)	0.1	3.9	2.4	-6.4	0.9	0.713	1.3	i	-12.8	-2.4
48	COc1ccc(C(=O)C(=O)c2ccc(OCCO)cc2)cc1	?	3.6	-2.7	-6.9	3.0	0.689	0.2	i	-10.6	1.1
49	COc1ccc(OC)c(CN2CCC(CNC(=O)Nc3cccc(Cl)c3)CC2)c1	0.8	-7.4	-4.0	-5.9	-11.3	0.682	1.0	i	16.3	3.9
50	Cc1cccc(NC(=S)NNC(=O)Cc2ccccc2)c1	0.1	.	.	.	.	0.707	-3.6	.	3.3	1.4
51	O=C(O)c1ccc(CSc2nc(-c3ccc(Cl)cc3)cc(C(F)(F)F)n2)cc1	0.0	5.7	12.4	21.6	-0.2	0.723	-1.8	i	-24.4	0.1
52	CC12CC3CC(C)(C1)CC(C(=O)NC(=S)N1CCCCC1)(C3)C2	0.0	-23.3	-17.1	-19.8	4.8	0.699	-4.6	i	1.9	6.0
53	O=C(O)C1CC=CCC1C(=O)Nc1cccc(F)c1 (centres undefined)	1.0	.	.	.	.	0.667	-4.4	.	-10.7	0.0
54	CC12CN3CCN(CC(C3)/C1=N\NC(=O)Nc1cccc(Cl)c1)C2	0.0	-0.5	-4.0	6.8	-0.2	.	-5.1	i	-3.0	.
55	O=C(Cn1nc2ccccc2n1)N/N=C/c1ccc(F)cc1	0.2	3.8	5.7	7.3	-7.7	.	-1.7	i	-8.9	.
56	CCOc1[nH]n(-c2ccc(Cl)cc2)c(=O)c1C=NCc1cccnc1	-1.0	1.2	2.9	2.2	-0.4	0.699	5.1	i	-10.9	5.6
57	CCC(=O)N1CCc2cc(S(=O)(=O)NCCC(=O)N3CCN(c4cccc(C)c4)C(C)C3)ccc21 (centres undefined)	-0.6	1.4	-4.2	-7.5	1.8	0.702	4.1	i	17.6	0.1
58	COc1ccc(N(CC(=O)NCc2ccncc2)S(=O)(=O)c2ccc(C)c([N+](=O)[O-])c2)cc1	-0.4	-3.2	-0.7	1.9	-3.5	0.712	-6.5	i	-3.4	-0.7
59	CCCOC(=O)c1ccc(NC(=O)c2cnccn2)cc1	-2.9	.	.	.	.	0.684	4.6	.	-2.2	2.8
